# Screens as filed in PubChem BioAssay.
# V. cholerae motility: Vibrio cholerae motility inhibitors, OD read-out (AID 588778). Vibrio cholerae motility, OD read-out; higher % means a stronger effect; test concentration not given here; primary cut-off and reference of the scale not given here; strong numbers were not always called active. 10,000 tested, under 10 active. inhibition, %; hits with a dose series show IC50 in µg/mL; in the data active means confirmed in a dose series
# V. cholerae motility viability: second read-out of V. cholerae motility, no call of its own (marks repeat the call); inhibition, %; measured here: bacterial viability at 10 ug/mL;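 higher means fewer living bacteria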
# The depositor's hits bear a star. An excerpt; count on the stated rates, not on these rows.
SMILES | V. cholerae motility | V. cholerae motility viability
O=C(Nc1cccnc1)c1ccc2nc(-c3ccccn3)c(-c3ccccn3)nc2c1 | -2.3% | -1.0
O=C(c1nc2ncccn2n1)N1CCc2ccccc2C1 | 0.9% | 2.7
COc1c(F)c(F)c(C(=O)Nc2ccc(N3CCN(S(C)(=O)=O)CC3)cc2)c(F)c1F | -1.1% | -3.5
O=S(=O)(Nc1nccs1)c1ccc(NS(=O)(=O)c2cccs2)cc1 | -16.7% | -6.2
O=C1CSc2nnc(-c3ccccc3Br)n2N1 | 47.9% | 44.5
CCOC(=O)CC(C#N)c1c[nH]c2ccccc12 (centres undefined) | 11.6% | 7.7
Cc1ccc(C#N)c(SCc2cccc(Br)c2)n1 | -4.5% | 0.2
CC12CCC(C(=O)NCc3ccco3)(OC1=O)C2(C)C (centres undefined) | -19.7% | -5.8
CCSCCNC(=O)c1cc(C(F)(F)F)cc(C(F)(F)F)c1 | -1.1% | -7.0
Cc1ccc(-c2nn3c(CC#N)nnc3c3ccccc23)cc1 | -33.9% | -6.7
COc1ccc(CNC(C)(C)C)cc1 | 14.7% | 3.1
O=C(CC(NCc1cccnc1)C(=O)O)NN(c1ccccc1)c1ccccc1 (centres undefined) | 6.7% | -2.1
Cc1c(NC(=O)COc2cc(Cl)c(Cl)cc2Cl)cccc1-c1nc2ccccc2o1 | -13.9% | -0.1
O=c1c(-c2ccco2)[n+]([O-])c2ccccc2n1O | 28.2% | 31.9
Cc1ccc(S(=O)(=O)N2CCCCC2)c(C)c1NS(C)(=O)=O | 2.9% | 2.9
O=S1(=O)CC(NCc2ccccc2)C(Nc2ccccc2)C1 (centres undefined) | 4.7% | 5.0
Cc1cc(NC(=O)CCC(=O)O)ccc1NC(=O)Cc1ccccc1 | 6.7% | 20.7
CCCOc1ccc(Cl)cc1CSc1nc(C)[nH]c1[N+](=O)[O-] | 34.3% | 5.1
O=C1c2cc3ccccc3c(-c3ccccc3)c2C(=O)N1CCO | -19.0% | -7.7
CC(=O)c1ccc(NC(=O)NNC(=O)C(C)Oc2cccc3ccccc23)cc1 (centres undefined) | 22.0% | 3.7
OCc1ccccc1CNC1CCCCC1 | 7.5% | 0.4
CC1CCCN(CCOc2cccc(C(F)(F)F)c2)C1 (centres undefined) | 9.6% | 3.1
COC(=O)Nc1cnn(Cc2ccc(Cl)cc2)c1 | -6.5% | -3.7
CC(=O)c1c(C)nn(C(C)CC(=O)O)c1C (centres undefined) | -3.2% | 6.4
CCOCCC(=O)Nc1ccccc1Sc1ccccc1 | 5.6% | -4.8

# Part of the list above, as labelled records.
Cc1ccc(-c2nn3c(CC#N)nnc3c3ccccc23)cc1
- V. cholerae motility: -33.9%
- V. cholerae motility viability: -6.7

COc1c(F)c(F)c(C(=O)Nc2ccc(N3CCN(S(C)(=O)=O)CC3)cc2)c(F)c1F
- V. cholerae motility: -1.1%
- V. cholerae motility viability: -3.5

CCSCCNC(=O)c1cc(C(F)(F)F)cc(C(F)(F)F)c1
- V. cholerae motility: -1.1%
- V. cholerae motility viability: -7.0

O=C1CSc2nnc(-c3ccccc3Br)n2N1
- V. cholerae motility: 47.9%
- V. cholerae motility viability: 44.5

# Next results:
SMILES | V. cholerae motility | V. cholerae motility viability
COc1ccc(NC(=O)Nc2ccccc2-c2ccccc2)cc1OC | -2.8% | -5.9
COC(=O)C(C(=O)N1CCN(C)CC1)C1CCCCCC1 (centres undefined) | -9.8% | -6.7
O=C(Nc1cnn(Cc2ccc(Cl)cc2)c1)c1cc2ccccc2oc1=O | -19.9% | -4.1
CCC(Oc1ccccc1)C(=O)Nc1nc2ccccc2[nH]1 (centres undefined) | 35.3% | 12.2
CC(C)OC(=O)N(C)c1ccc(C(O)(C(F)(F)F)C(F)(F)F)cc1 | 11.3% | 31.3
Cc1ccc(C(C)C)c(OC(=O)CSc2ccc(S(C)(=O)=O)cc2[N+](=O)[O-])c1 | -5.4% | -6.4
O=C(CCc1nc(-c2ccccc2F)no1)NC1CCCCC1 | -0.6% | -5.4
COc1cccc(-c2nc(-c3ccccn3)no2)c1OC | 11.7% | 4.3
Cc1cc(I)cnc1NC(=O)c1ccccc1[N+](=O)[O-] | 10.0% | 0.3
Cc1nn(C(=O)c2cccnc2)c(C)c1Sc1ccccc1 | 9.3% | 21.4
CN(C)CC(O)C1CCOC(C)(C)C1 (centres undefined) | 2.5% | 4.8
Clc1ccc(OCC#CCN2CCc3ccccc3C2)cc1 | 7.2% | 5.4
CC1(C)Cc2c(c(N3CCOCC3)nc3sc(-c4ccc(C(=O)O)o4)c(N)c23)CO1 | 9.6% | 6.0
Fc1ccc(C2=CC(c3ccc(Br)o3)n3ncnc3N2)cc1 (centres undefined) | 3.6% | -7.7
Brc1ccc(-c2cn3c(n2)SCC3)cc1 | 12.2% | 0.3
COc1ccc(CCNCc2ccc(SC)cc2)cc1 | 13.0% | 34.6
O=C(NCCC1=CCCCC1)c1ccc(Br)s1 | -12.3% | -2.8
Cc1cc(=O)oc2cc(OCCSc3ccc([N+](=O)[O-])cc3)ccc12 | -1.2% | 0.1
CC(NC(=O)NCc1ccc(F)cc1)(C(F)(F)F)C(F)(F)F | 6.5% | 4.2
O=C(Cn1cnc([N+](=O)[O-])n1)Nc1ccc(Cl)cc1C(F)(F)F | 11.8% | 3.4
CC(C)(C)CC(C)(C)NC(=O)c1ccc([N+](=O)[O-])cc1 | -0.7% | -6.0
O=C(COc1ccc(C2CCCCC2)cc1)Nc1cc(-c2nc3ncccc3o2)ccc1Cl | -23.3% | -6.9
CCCC(NC(=O)OCc1ccccc1)C(=O)Oc1ccc2c(C(F)(F)F)cc(=O)oc2c1 (centres undefined) | 15.7% | 5.5
Cc1noc(C)c1C(=O)Nc1nc(C23CC4CC(CC(C4)C2)C3)cs1 | 0.7% | 1.2
Cc1nc2nc[nH]n2c(=O)c1NS(=O)(=O)c1cccs1 | -9.2% | -1.6
Cc1ccc(SCCCCn2cnc3ccccc32)cc1 | 18.1% | 5.9
O=C(COc1ccc2ccccc2c1)Nc1ccc(Cl)cn1 | -6.0% | 23.3

# Pulled by compound from above, two records:
SMILES | V. cholerae motility | V. cholerae motility viability
Cc1ccc(SCCCCn2cnc3ccccc32)cc1 | 18.1% | 5.9
O=C1c2cc3ccccc3c(-c3ccccc3)c2C(=O)N1CCO | -19.0% | -7.7

# Part of the list above in order of molecular weight, rising.
SMILES | V. cholerae motility | V. cholerae motility viability
CC(C)(C)CC(C)(C)NC(=O)c1ccc([N+](=O)[O-])cc1 | -0.7% | -6.0
Cc1ccc(SCCCCn2cnc3ccccc32)cc1 | 18.1% | 5.9
Cc1nn(C(=O)c2cccnc2)c(C)c1Sc1ccccc1 | 9.3% | 21.4
CC(C)OC(=O)N(C)c1ccc(C(O)(C(F)(F)F)C(F)(F)F)cc1 | 11.3% | 31.3
Fc1ccc(C2=CC(c3ccc(Br)o3)n3ncnc3N2)cc1 (centres undefined) | 3.6% | -7.7
